# D2 potentiator: Beta-Arrestin HTS for Positive Allosteric Modulators of the Human D2 Dopamine Receptor: Potentiators; 360,000 tested, 0.23% active; potentiation, % (concentration not given with the values); D(2) dopamine receptor (Homo sapiens), P14416; DiscoveRx D2 beta-arrestin cells, luminescence, 90 min; 100% = 57 uM dopamine signal; AID 624464, 2012; active = potentiation of 50% or more; inconclusive = 30% to 50%; inactive = 30% or less;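 also: compound concentration not given in the record; tested on top of an EC20 dose of dopamine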
# Target sequence (P14416 whole entry, looked up): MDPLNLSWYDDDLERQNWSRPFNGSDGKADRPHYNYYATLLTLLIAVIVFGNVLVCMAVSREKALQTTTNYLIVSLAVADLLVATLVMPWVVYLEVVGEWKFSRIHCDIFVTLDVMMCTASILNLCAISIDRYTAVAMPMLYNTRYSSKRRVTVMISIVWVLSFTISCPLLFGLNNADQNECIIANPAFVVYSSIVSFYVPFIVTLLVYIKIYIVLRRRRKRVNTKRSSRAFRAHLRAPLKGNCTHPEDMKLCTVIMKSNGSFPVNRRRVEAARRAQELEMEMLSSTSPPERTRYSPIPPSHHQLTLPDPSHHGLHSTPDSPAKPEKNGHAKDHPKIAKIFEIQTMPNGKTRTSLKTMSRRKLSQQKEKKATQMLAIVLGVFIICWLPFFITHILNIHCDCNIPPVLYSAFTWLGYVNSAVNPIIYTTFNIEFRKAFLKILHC
#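 D2 cells co-treated with compound plus 50 nM dopamine (EC20) for 90 min at 37 deg C to detect potentiation. Beta-arrestin recruitment was read as enzyme-fragment luminescence after 1 h at ambient temperature. Full response was set by 57 uM dopamine.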
# D2 agonist: Beta-Arrestin HTS for Positive Allosteric Modulators of the Human D2 Dopamine Receptor: Agonists; D(2) dopamine receptor (Homo sapiens), P14416; DiscoveRx PathHunter D2 beta-arrestin, luminescence, 90 min; 100% = 57 uM dopamine signal; activation, % (no concentration beside the values); 360,000 tested, 0.084% active; in the data active = activation above about 40%; inconclusive = about 15% to 40%; inactive = below about 15%; also: compound concentration not given in the record; the text of the record calls up to 30% inactive
#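 DiscoveRx PathHunter D2 beta-arrestin cells (2,100/well) attached overnight, then compound-stimulated 90 min at 37 C in HBSS/10 mM HEPES/0.1% Tween-20 buffer; beta-galactosidase complementation read by luminescence after 1 h at ambient temperature. Dopamine 57 uM final (EC100) as control.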
# CtBP-E1A blk: qHTS Assay for Inhibitors of the CtBP/E1A Interaction; CtBP / adenovirus E1A interaction (AlphaScreen); AlphaScreen GST-E1A/His-CtBP binding, 1536-well; hits give low values; control for the full effect not named in the record; activity change, % (no concentration beside the values); 340,000 tested, 0.49% active; AID 651724, 2012; in the data active means activity change below about -65%; inconclusive means about -30% to -65%; inactive means above about -30%; also: % is scaled to controls: 0 for no effect and ±100 for the full control effect; compound concentration not given in the record
#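 AlphaScreen with 125 nM GST-E1A and 125 nM His-CtBP (5X stocks) in Tris pH 8.0, 300 mM NaCl, BSA, Tween 20, TCEP. Compounds preincubated 2 h at 37 deg C, then glutathione donor/nickel acceptor beads added for 1 h at 37 deg C in dark.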
# TRPML1 agonist: qHTS for Agonists of the Human Mucolipin Transient Receptor Potential 1 (TRPML1); TRPML1-expressing cells, Ca2+ dye fluorescence, FDSS; host cell line not named in the record; reference of the full effect not given here; 410,000 tested, 0.12% active; activation, % (no concentration beside the values); Mucolipin-1 (Homo sapiens), Q9GZU1; in the data active = activation above about 50%; inconclusive = about 30% to 50%; inactive = below about 30%; also: 0% is about no effect; the text of the record puts the active cut at 80%
# Target sequence (Q9GZU1 whole entry, looked up): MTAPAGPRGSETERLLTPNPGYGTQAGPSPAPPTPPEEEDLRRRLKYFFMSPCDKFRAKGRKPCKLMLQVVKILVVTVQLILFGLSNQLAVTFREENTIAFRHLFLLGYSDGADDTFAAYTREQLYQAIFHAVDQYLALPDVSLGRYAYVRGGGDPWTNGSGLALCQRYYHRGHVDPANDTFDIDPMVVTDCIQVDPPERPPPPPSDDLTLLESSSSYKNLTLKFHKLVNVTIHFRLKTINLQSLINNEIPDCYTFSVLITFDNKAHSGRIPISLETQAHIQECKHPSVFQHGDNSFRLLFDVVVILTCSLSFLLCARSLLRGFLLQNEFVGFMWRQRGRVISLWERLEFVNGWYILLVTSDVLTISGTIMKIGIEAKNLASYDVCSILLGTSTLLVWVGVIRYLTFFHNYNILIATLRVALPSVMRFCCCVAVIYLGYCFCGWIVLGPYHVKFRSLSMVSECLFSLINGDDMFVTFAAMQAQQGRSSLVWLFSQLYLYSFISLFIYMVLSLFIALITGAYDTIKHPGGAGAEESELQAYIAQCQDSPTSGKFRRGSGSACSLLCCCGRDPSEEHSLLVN
#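 In this qHTS format, compounds were pin-transferred onto Ca8-dye-loaded TRPML1-DL cells induced with Tet overnight, and intracellular Ca2+ fluorescence was recorded kinetically for 110 s after a 10 s baseline. A subsequent 4uM final 54-4 (EC80) addition followed by a second 110 s read served as the antagonist phase.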
# PINK1 expr mod: A Quantitative High throughput Screen to Identify Chemical Modulators of PINK1 Expression; PINK1 immunofluorescence, high-content cytometry, 24 h; Potency, µM (highest dose often 76.6 µM), for the others: at the highest dose activation (PINK1 increase), actives largely listed as activators; 410,000 tested, 0.2% active; active = well fitted activation curve with a large enough effect; inconclusive = small, poorly fitted or top-dose-only effect; inactive = flat fitted curve, though single readings scatter; cell line not stated here;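 also: potency is read from the fitted curve at half-maximal effect; % of control where 0% means no effect; nearly all actives have a fitted effect of over 65% in size; a mitochondrial uncoupler was the plate control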
#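 PINK1 protein, normally rapidly degraded, was detected by immunofluorescence after 24 hour compound treatment of a stable cell line. Titration data (5 concentrations) came from laser-scanning cytometry, with CCCP-treated wells as controls.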
# Six1-Eya2 blk: qHTS Assay for Inhibitors of the Six1/Eya2 Interaction. AID 651725, 2012. activity change, % (concentration not given with the values). AlphaScreen GST-Six1/His-Eya2 binding, biochemical; hits give low values; control for the full effect not named in the record. 360,000 tested, 0.56% active; in the data active = activity change below about -65%; inconclusive = about -30% to -65%; inactive = above about -30%; also: % is scaled to controls: 0 for no effect and ±100 for the full control effect
#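 AlphaScreen with GST-Six1 and His-Eya2 (5X mix: 250 nM and 500 nM), glutathione donor and nickel acceptor beads; buffer 50 mM Tris pH 8.0, 300 mM NaCl, 1 mM TCEP; 1 h at 37 C in the dark.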
# An asterisk follows results filed as active; ? = inconclusive; . = not tested or not shown; [ ] = remark or other dose.
SMILES,D2 potentiator,D2 agonist,CtBP-E1A blk,TRPML1 agonist,PINK1 expr mod,Six1-Eya2 blk
Cc1c(C(=O)NCc2cccnc2)oc2ccc(S(=O)(=O)N3CCC4(CC3)OCCO4)cc12,12,2.5,2,0.8,0.3%[38.3 µM],-3
Cc1ccc2c(c1)[C@H]1[C@H](CO2)[C@H](c2ccccc2)[C@]2(C)C(=O)N(Cc3ccccc3)CC(=O)N12,-3,-7.0,-12,0.5,0.6%,-2
COc1ccccc1NC(=O)CN1CCN(CC(=O)Nc2ccc(F)cc2)CC1,-5,-3.2,3,-0.4,3.0%,7
Cc1c(C(=O)NCc2ccccc2C(F)(F)F)sc(=O)n1Cc1ccc(S(=O)(=O)N(C)C)cc1,-3,-1.1,-18,0.3,-1.2%,0
COc1ccc(/C=C(\C)C(=O)c2c(C)cc(C)[nH]c2=O)cc1,3,-4.5,0,0.6,1.2%,12
NS(=O)(=O)c1ccc(Sc2nc3ccccc3s2)c([N+](=O)[O-])c1,9,12,-3,1.2,21%,-1
CC(=NNC(=S)N1CC2CCC(CC2)C1)c1ccccn1,-27,-3.7,-14,0.5,17%,-14
c1ccc(-c2cnnc(SCc3cn4cccnc4n3)n2)cc1,19,0.3,0,-1.3,-1.5%,-3
Cc1ccc(C)c(NC2=NC3(CCCCC3)N=C(N)N2)c1,-26,-2.3,-2,-0.1,8.3%[38.3 µM],-1
CC1CCN(S(=O)(=O)c2cn(CC(=O)N3CCN(c4cccc(C(F)(F)F)c4)CC3)cn2)CC1,-11,4.7,-1,-1.7,-1.0%,-1
O=C(Cc1cccs1)NNC(=O)c1ccccc1Cl,-1,-2.7,2,0.3,2.3%,8
CC1(C)CC(=O)C=C(c2ccc(-c3ccccc3)cc2)C1,2,-0.9,7,1.2,0.8%,4
O=C(c1ccccc1)N1CCN(CC2CC=CCC2)CC1 (stereo unspecified),-21,-3.2,-1,-0.5,-2.6%,1
NC1=NN=C(c2ccc3c(c2)OCCO3)CS1,-5,-4.0,-1,0.7,-0.4%,1
Fc1ccc(CNCc2ccccc2C(F)(F)F)cc1,-19,-3.7,20,0.1,10%,21
Cc1cc(C)c2cc(C#N)c(NCCNC(=S)NCCCN3CCOCC3)nc2c1,-9,2.7,-1,1.6,-1.1%,-12
CCC(C)Sc1cc(-c2nc3ccc(C)cn3c2NCc2ccccc2)ccc1OC (stereo unspecified),1,8.9,.,1.2,?,-23
CC(=O)c1ccc(N2CCN(C(=O)c3ccc4c(=O)n(-c5ccccc5)c(=O)[nH]c4c3)CC2)cc1,-5,1.9,-1,-0.3,-1.6%[38.3 µM],2
COc1cccc2c1-c1c(O)cccc1C2=O,-4,8.3,.,-0.3,-1.0%,-23
Nc1ccc2c(c1)[nH]c(=O)c1cc(N)ccc12,2,?,-18,0.0,0.3%,-29

# 3 entries from above, sorted by SMILES length, lowest first:
SMILES,D2 potentiator,D2 agonist,CtBP-E1A blk,TRPML1 agonist,PINK1 expr mod,Six1-Eya2 blk
Nc1ccc2c(c1)[nH]c(=O)c1cc(N)ccc12,2,?,-18,0.0,0.3%,-29
COc1ccccc1NC(=O)CN1CCN(CC(=O)Nc2ccc(F)cc2)CC1,-5,-3.2,3,-0.4,3.0%,7
CC(=O)c1ccc(N2CCN(C(=O)c3ccc4c(=O)n(-c5ccccc5)c(=O)[nH]c4c3)CC2)cc1,-5,1.9,-1,-0.3,-1.6%[38.3 µM],2

# The listing continues.
SMILES,D2 potentiator,D2 agonist,CtBP-E1A blk,TRPML1 agonist,PINK1 expr mod,Six1-Eya2 blk
COC(=O)c1ccccc1NC(=O)C1CCCO1 (stereo unspecified),4,-0.7,-6,0.4,-0.4%,1
O=C(NCCc1cccc(Cl)c1)C1CCC(=O)N(Cc2ccc(Cl)cc2)C1 (stereo unspecified),-11,-5.6,7,0.1,2.7%,-1
COc1cccc(OC)c1NC(=O)c1nc2c(nnn2Cc2ccccc2Cl)c(=O)[nH]1,-2,0.3,8,-0.3,1.1%,-5
COC(=O)c1ccc2nc(-c3cccc(Br)c3)c(CC3CCCCC3)n2c1,.,.,6,0.0,0.0%,5
O=C(CSc1nnc(CNC(=O)c2ccc(F)cc2)o1)NCc1ccccc1Cl,-9,-4.5,6,0.6,0.0%,-1
Cc1sc(NC(=O)C2CSC3(C)CCC(=O)N23)nc1-c1ccc(F)cc1 (stereo unspecified),-11,-1.8,-2,-0.2,0.0%,0
Cc1ccc(C(=O)C[n+]2cc(-c3ccc(C)cc3)n3c2CCCCC3)cc1,-47,-2.3,0,0.0,?,3
CCS(=O)(=O)c1nc(S(=O)(=O)c2ccc(Cl)cc2)c(N2CCC(O)CC2)s1,-1,3.4,-9,0.2,-1.6%,8
CCn1c(CNC(=O)c2ccc3c(c2)OCO3)nnc1SCC(=O)Nc1ccccc1F,-9,-1.0,1,-0.5,2.7%,-7
CCc1nnc(NC(=O)c2cccc(S(=O)(=O)N3CCc4ccccc43)c2)s1,-14,-3.3,3,1.1,3.4%,-1
O=C(/C=C/c1ccccc1)Oc1ccccc1C(=S)N1CCOCC1,-10,1.9,-8,2.1,-1.8%,24
C#CCN(Cc1ccco1)C(=O)c1ccc(OC2CCN(Cc3ccccn3)CC2)cc1,-15,-2.6,-5,-0.2,2.0%,-1
c1ccc(-c2cn3c(n2)SCC3)cc1,-18,-3.1,-3,-0.4,2.5%,-3
COc1ccc(-n2nc(C(=O)NCC(=O)N3CCCCC3)c3ccccc3c2=O)cc1,3,-0.4,-6,-0.6,2.7%,2
COc1cccc(N2C(=O)/C(=C\c3cccs3)NC2=S)c1,-2,-4.6,.,1.0,-1.1%,2
COc1ccc(C(=O)N2CCC(C(=O)Nc3ccccc3C)CC2)cc1OC,2,-2.5,5,0.2,-1.9%,14
O=C(CCCN1C(=O)C(c2ccccc2)Oc2cccnc21)NCc1ccc(F)cc1 (stereo unspecified),-1,-3.9,-5,-0.9,4.5%,-1
C=C(C)C(=O)Nc1ccc2c(c1)OCCOCCOCCO2,-2,1.9,-24,0.5,0.5%,?
COc1ccc(Br)cc1CN(C)CC(O)COc1ccc(Br)cc1 (stereo unspecified),-9,-1.0,5,-0.6,2.3%,-7
NC(=O)C1CCN(C(=O)c2cc3n(n2)C(C(F)(F)F)CC(c2ccco2)N3)CC1 (stereo unspecified),2,-2.0,4,0.2,-1.1%,-1
CN(c1ccc(F)cc1)S(=O)(=O)c1ccc(Cl)c(C(=O)NCC2CCCO2)c1 (stereo unspecified),-2,-3.3,14,-0.4,-0.1%,10
CCOC(=O)Cn1c(=NC(=O)c2sc3ccccc3c2Cl)sc2cc(S(N)(=O)=O)ccc21,-9,-3.1,17,0.1,5.6%,-11
Cn1c(N)c(C(=O)CSc2nnc(-c3c[nH]c4ccccc34)n2C2CC2)c(=O)[nH]c1=O,1,-1.8,-3,-0.5,1.7%,-3
CC(=O)c1c(C)[nH]c(C(=O)CSc2nc3ccccc3c(=O)n2CCCN2CCOCC2)c1C,-7,-0.8,2,-0.1,-1.0%[38.3 µM],0
Clc1ccc(-c2nc(NCCN3CCOCC3)c3ccccc3n2)cc1,-7,-3.2,-23,1.3,0.1%[38.3 µM],-16
CSCC(=O)N1CCC(n2nccc2NC(=O)CCc2ccccc2)CC1,-8,-0.2,4,-0.5,2.1%,1
COc1ccc(NC(=O)CN(C)CC(=O)Nc2ccc(C)c(S(=O)(=O)N3CCCCC3)c2)cc1,-2,6.3,3,0.4,3.4%,-1
Cc1cc(C)cc(C(=O)N2CCCCC2)c1,-5,-5.4,5,-0.4,3.6%,-1
Cc1cc(C)nc(N2CCCC(C(=O)Nc3ccc4nc(C)c(C)nc4c3)C2)n1 (stereo unspecified),-12,-1.1,-21,2.8,5.1%[38.3 µM],-22
CCN1CCN(C(=O)Nc2cccc3ccccc23)CC1,-2,-2.7,1,-0.8,2.8%,-1
CCSc1nc2ccc(OC)cc2cc1C#N,-10,0.5,11,3.6,-1.1%,31
CCN(CC)CC#CCOC(c1ccccc1)c1ccccc1,-23,-5.5,-15,0.0,3.0%,-1
CC(C)Cn1c(N)c(C(=O)COC(=O)/C=C/c2ccccc2)c(=O)n(C)c1=O,2,0.2,-7,0.4,3.1%,6
Cc1ccc(S(=O)(=O)N2CCOCC2)cc1C(=O)NC1CCCCC1,3,-1.7,6,1.6,-7.8%[38.3 µM],6
CN1CCC(=O)N([C@H](CO)c2ccccc2)CC1,-9,-2.4,3,0.5,2.0%,-1
COc1ccccc1NC(=O)COC(=O)c1ccc(N2CCCC2=O)cc1,-1,6.5,1,0.7,6.1%,1
COC(=O)COc1ccc(NC(=O)Cn2nc(-c3ccccc3)c3ccccc3c2=O)cc1,-5,4.1,5,-0.4,0.8%,0
Cc1cccc(NC(=O)CN2CCN(CC(=O)NCc3ccc(Cl)cc3Cl)CC2)c1C,-18,-1.3,6,1.7,4.6%,4
Cc1cnc(NC(=O)COc2ccccc2)s1,2,-1.0,-4,-0.7,4.5%,-6
CCC(c1nnc(SCC(=O)Nc2cc(S(C)(=O)=O)ccc2Cl)n1Cc1ccccc1)N(C)C (stereo unspecified),-38,-2.8,0,-0.1,-2.5%,20

# The closing 5 records of the part above lead into the next.
SMILES,D2 potentiator,D2 agonist,CtBP-E1A blk,TRPML1 agonist,PINK1 expr mod,Six1-Eya2 blk
COc1ccccc1NC(=O)COC(=O)c1ccc(N2CCCC2=O)cc1,-1,6.5,1,0.7,6.1%,1
COC(=O)COc1ccc(NC(=O)Cn2nc(-c3ccccc3)c3ccccc3c2=O)cc1,-5,4.1,5,-0.4,0.8%,0
Cc1cccc(NC(=O)CN2CCN(CC(=O)NCc3ccc(Cl)cc3Cl)CC2)c1C,-18,-1.3,6,1.7,4.6%,4
Cc1cnc(NC(=O)COc2ccccc2)s1,2,-1.0,-4,-0.7,4.5%,-6
CCC(c1nnc(SCC(=O)Nc2cc(S(C)(=O)=O)ccc2Cl)n1Cc1ccccc1)N(C)C (stereo unspecified),-38,-2.8,0,-0.1,-2.5%,20
Cc1ccc(Nc2nc(=O)c3cccnc3s2)cc1,-16,-2.2,-15,1.3,1.0%[38.3 µM],-27
O=C(CCc1nnc2ccc(NCc3ccco3)nn12)Nc1ccc(F)cc1,-11,-4.8,-8,0.4,0.5%,-1
O=C(Cc1cccs1)N1CCC(c2nc3c(nnn3Cc3ccccc3Cl)c(=O)[nH]2)CC1,8,-0.3,-11,1.6,-4.5%[38.3 µM],-6
CCC(=O)c1ccc(OCCN2CCOCC2)cc1,-12,-1.9,0,0.8,-2.6%,6
CC(=O)n1c2ccccc2c2ccccc21,-11,-0.3,20,1.1,1.6%[38.3 µM],14
CN(Cc1ccccc1)C(=O)COC(=O)c1c[nH]c2ccccc12,-22,-1.0,-9,0.1,-1.7%,2
